Bioassay records (PubChem)
HSD17B inh = inhibitors of human HSD17B10 dehydrogenase | AID 893 | recombinant HSD17B10, NADH fluorescence kinetic; many of its hits are not listed in these tables | Potency, µM (series often up to 57.1 µM), for inactives: at the highest dose activity change, negative = inhibition, actives largely listed as inhibitors | Q99714 | 75,000 tested, 7.6% active; active means well fitted inhibition curve with a large enough effect; inconclusive means small, poorly fitted or top-dose-only effect; inactive means no such curve, though single readings can be large or run the other way;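 further: the protocol describes HADH2 (HSD17B10) and not the HSD17B4 of the title; nearly all actives have a fitted effect of over 70% in size; most hits overshoot -100% by far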
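Enzyme plus compound, 15 min room temperature; substrate mix added (NAD+ 1 mM, beta-hydroxybutyryl-CoA 90 uM final); plates read kinetically for NADH fluorescence. HADH2 was His-tagged, E. coli-derived, 20 nM.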
* marks the source's active call; other numbers are inactive results; ? = inconclusive; [ ] = another dose, or the depositor's remark. On the % scale 0 is the no-effect control and ±100 the full control effect; potency means the concentration at half of the fitted maximal effect.

SMILES	HSD17B inh
Cc1oc(C(=O)O)cc1CSCc1cc(C(=O)O)c(C)o1	?
COCCn1c(SCC(=O)NCc2ccco2)nc2cccnc21	-21%
CN(C)c1nc(N2CCOCC2)nc(N(c2ccccc2)c2ccccc2)n1	0%
CC(C)(C)NS(=O)(=O)c1ccc(CCC(=O)O)cc1	-3%
Oc1ccc(C=Nc2ccc(N3CCOCC3)cc2)c(O)c1	-1%
Cc1noc(C)c1CSCC(=O)OCC(=O)NC1CCCCC1	-13%
CCOC(=O)Cn1nnnc1C(C(C)C)N(Cc1cc2c(C)cc(C)cc2[nH]c1=O)C1CCCC1 (centres undefined)	?
C=CCn1cc(C(=O)OC)c(=O)c2cc(S(=O)(=O)N3CCC(C)CC3)ccc21	4%
CC(C)(C)C1CCc2c(sc3c2C(=O)NC(c2ccco2)N3)C1 (centres undefined)	0%
CC(NC(=O)c1ccco1)C(c1cccs1)N1CCN(c2ccccc2F)CC1 (centres undefined)	-6%
O=c1c2ccccc2nc2n1CCCS2	9%
COc1ccc(CN2CCNC(=O)C2CC(=O)O)cc1OC (centres undefined)	6%
CCOc1ccccc1NC(=O)c1ccccc1-c1nc(-c2ccccc2)no1	-18%
Cc1cc(C)nc(SCc2nnc(SCC(=O)Nc3cc(C(F)(F)F)ccc3Cl)o2)n1	0%
Cc1nnc(SCC(=O)N2CCN(S(=O)(=O)c3ccc(Cl)cc3)CC2)[nH]c1=O	-14%
CC1Cc2ccccc2N1C(=O)c1ccc2c(c1)nnn2C (centres undefined)	13%
CN(c1cccc(NC(=O)Cc2ccccc2)c1)S(C)(=O)=O	1%
CN(C)c1[nH]c(=O)c(C#N)c2c1CCN2Cc1ccccc1	?
CCOc1ccc(-c2nc(C#N)c(N3CCN(C)CC3)o2)cc1	25µM*
COc1ccc(-c2cc(C(=O)NCc3ccccc3)no2)cc1OC	25µM*
O=C(NCC(=O)N(Cc1cccs1)C(C(=O)NC1CCCC1)c1ccncc1)c1ccco1 (centres undefined)	?
Cc1cc(C(=O)NCc2ccccc2F)cs1	-7%
COc1ccc(CNC(=O)CSc2ncn[nH]2)cc1	-1%
COc1cc(OC)c(NC(=O)c2ccco2)cc1Cl	0%
COc1ccc(Cl)c(NC(=O)Cn2nnc(-c3ccccc3N)n2)c1	9%
SMILES	HSD17B inh
O=C(O)Cc1cc(Cl)ccc1O	3%[11.4 µM]
CCN1CCN(C(=O)c2cn(CCOC)c(=O)c3c2c2ccccc2n3C)CC1	16µM*
CCCCCOc1ccc(C(=O)N(Cc2ccco2)C2CCS(=O)(=O)C2)cc1 (centres undefined)	-1%
Nc1cc(C(=O)O)ccc1Nc1ccc(F)c(F)c1	?
O=C(c1cccc(COc2ccc(Cl)cc2Cl)c1)N1CCN(c2ccccn2)CC1	19%
CCCCCS(=O)(=O)CCCCCCCCCCn1c(-c2ccc(O)cc2)c(C)c2cc(O)ccc21	32µM*
CCOC(=O)c1ccc(-n2c(C)nc3c(cnn3-c3ccccc3C)c2=O)cc1	4%
O=C(c1ccc(Cl)c(Cl)c1)N1CCOCC1	16%
Cc1ccc(C)c(Cn2c(=O)n(CCC(=O)NCc3ccco3)c(=O)c3ccccc32)c1	1%
Cc1ccc(-n2nc(-c3cccnc3)cc2C(=O)N2CCOCC2)c(C)c1	1%
CCOC(=O)C1CCN(S(=O)(=O)c2ccc(-c3nc4ccccc4s3)s2)CC1	25µM*
COc1ccc(C2CC(c3ccccc3)Nc3ncnn32)cc1 (centres undefined)	1%
Cc1ccc(-c2nc(-c3cccnc3)no2)c(C)c1	-1%
CCc1cc2c(=O)c(-c3ccc4c(c3)OCCO4)coc2cc1OC(=O)c1ccco1	100%[activator]
C[C@@H]1O[C@H](O[C@@H]2[C@@H](Oc3cc(O)c4c(c3)O[C@H](c3ccc(O)cc3)CC4=O)O[C@@H](CO)[C@@H](O)[C@H]2O)[C@@H](O)[C@H](O)[C@@H]1O	10%[25.6 µM]
COc1ccc(-c2nc(CS(=O)CC(=O)N3CCCC3)c(C)o2)cc1 (centres undefined)	-25%
O=C(NCc1ccccc1)c1ccc(OC2CSC2)cc1	-12%
CCOC(=O)CSC1=Nc2ccccc2C2=NC(CC(=O)NCc3ccccc3)C(=O)N12 (centres undefined)	25µM*
Cc1csc(SCCn2c(N3CCCC3)nc3c2c(=O)[nH]c(=O)n3C)n1	4%
Cc1nc2nc(-c3ccccc3)nn2c(C)c1Cl	12%
CC(C)(C)n1nc(C2CC2)cc1NC(=O)Nc1ccc(Cl)cc1	4%[11.4 µM]
Cc1cc(S(=O)(=O)NCC(C)C)ccc1OCC(=O)N1CCOCC1	2%
CCOc1ccccc1-n1c(SCC(=O)NC(C)CC)nnc1-c1ccoc1C (centres undefined)	27%
COc1ccc(-c2nnc(SCC(=O)Nc3cccc(Cl)c3)o2)cc1	-1%
N#CC1C(=O)NC(N2CCN(c3ccccc3)CC2)=NC12CCCCC2 (centres undefined)	4%

Overlap with the part before: 6 entries, then new ones.
SMILES	HSD17B inh
Cc1nc2nc(-c3ccccc3)nn2c(C)c1Cl	12%
CC(C)(C)n1nc(C2CC2)cc1NC(=O)Nc1ccc(Cl)cc1	4%[11.4 µM]
Cc1cc(S(=O)(=O)NCC(C)C)ccc1OCC(=O)N1CCOCC1	2%
CCOc1ccccc1-n1c(SCC(=O)NC(C)CC)nnc1-c1ccoc1C (centres undefined)	27%
COc1ccc(-c2nnc(SCC(=O)Nc3cccc(Cl)c3)o2)cc1	-1%
N#CC1C(=O)NC(N2CCN(c3ccccc3)CC2)=NC12CCCCC2 (centres undefined)	4%
O=C(Nc1ccc(NC(=O)C2CC2)cn1)c1ccccc1Cl	1%
C[C@@H]1C(=O)O[C@@H]2C[C@]34[C@H]5C[C@@H](C(C)(C)C)[C@@]36[C@@H](OC(=O)[C@@H]6O)O[C@@]4(C(=O)O5)[C@@]12O	4%[25.6 µM]
CCCS(=O)(=O)c1nc(S(=O)(=O)c2ccc(C)cc2)c(NCCCN2CCOCC2)s1	-2%
COc1cccc(NC(=O)Cn2nnc(-c3ccccc3N)n2)c1	3%
COc1cc(C2NC(=O)NC(C)=C2C(=O)OC(C)(C)C)ccc1OCC(=O)O (centres undefined)	7%
CCn1nnc(NC(=O)c2cc3ccccc3o2)n1	3%
COC(=O)c1ccc(OC(=O)c2ccco2)cc1	-1%
COc1ccccc1OCCn1c(C(C)O)nc2ccccc21 (centres undefined)	-4%
Clc1ccc(CSc2nnc(-c3ccncc3)o2)cc1	-6%
O=C1c2ccccc2NC2CCCCC12 (centres undefined)	-9%
O=C(Cn1c(-c2ccccc2)noc1=O)Nc1ccc(N2CCCCCC2)cc1	-24%
COc1ccc2cc(CCNC(=O)c3ccc(Br)o3)c(=O)[nH]c2c1	?
Cc1cc(NC(=O)c2cccc(S(=O)(=O)N3CCOCC3)c2)c2ccccc2n1	1%
Cc1cc(C)n(CC(=O)n2c3ccccc3c3ccccc32)n1	0%
COC(=O)c1cc(=O)n(C2CC2)c(=NC2CC2)s1	11%
CCCCNC(=O)c1ccc(CS(=O)(=O)c2ccc(OC)cc2)o1	-1%
COC(=O)[C@@]1(Cc2ccc(OC)cc2)[C@H]2c3cc(C(=O)N4CCCC4)n(Cc4ccc(OC(F)(F)F)cc4)c3C[C@H]2CN1C(=O)c1ccccc1	14%
O=C(CCc1nc2ccccc2[nH]1)Nc1ccccc1	7%
CCCCSc1nnc([C@@H]2CCCN2C(=O)OC(C)(C)C)o1	1%
CCCCC1CCC(C(=O)Nc2c(C)n(C)n(-c3ccccc3)c2=O)CC1 (centres undefined)	27%
COC(=O)c1[nH]c2cc(C)ccc2c1NC(=O)CN1CCc2cc(OC)c(OC)cc2C1	?
Cc1ccc(C2C(C#N)=C(N)SC(N)=C2C#N)cc1	25µM*
O=C(c1cnsn1)N1CCN(c2ccccc2)CC1	-7%
Cc1ccc(-n2c(Cc3cccn3C)nnc2SCC(N)=O)cc1	4%
Cc1nnc(SCc2cc(=O)n3[nH]cnc3n2)s1	0%
SMILES	HSD17B inh
COc1ccc(CC(=O)Nc2ccc(N3CCN(c4ccc(OC)cc4)CC3)c(C#N)c2)cc1	?
COc1ccc(CCn2c(C)cc(C(=O)CSc3nnnn3C)c2C)cc1	3%
CCS(=O)(=O)Nc1ccc(C(=O)CC2(O)C(=O)Nc3ccc(Br)cc32)cc1 (centres undefined)	?
CCOC(=O)c1cccnc1SCC(=O)N(C)c1ccccc1	-4%
CC(=O)N1CCc2cc(S(=O)(=O)N3CCOCC3)ccc21	4%
CC(C)Oc1ccc(C(=O)N(CN2CCCC2=O)c2ccc(F)cc2)cc1	-2%
O=C(/C=N/O)Nc1ccccc1C(=O)O	1%
COc1ccc(C(=O)N2CCC3(CCCN(C(=O)Nc4cccc(C#N)c4)C3)CC2)cc1	-4%
Cc1ccc(OCc2nc(C#N)c(N3CCCC3)o2)cc1	-5%
CN(CC(=O)Nc1nccs1)S(=O)(=O)c1ccc(F)cc1	5%
COc1ccc(NC(=O)CCc2nc(-c3ccccc3F)no2)cc1	4%
CCN(CC)C(=O)CSc1ncnc2c1nnn2-c1ccc(F)cc1	10%
Cc1cc(Cl)nc(NC(=O)CSc2ccc(Cl)cc2)n1	5%[11.4 µM]
Cc1ccc(Nc2nc(CSc3nnnn3C)cs2)cc1	-14%
COc1cccc(NC(=O)Cn2c(-c3cncs3)nc3ccccc32)c1	?
C=CCSc1nnc2nc3c(nn12)c1cc(C)ccc1n3CC=C	-3%
Cc1cc(C)cc(NS(=O)(=O)c2ccc3[nH]cc(C(=O)NCc4ccco4)c(=O)c3c2)c1	32µM*
Cc1ccccc1Nc1nnc(C)c(=O)[nH]1	9%
O=C(O)c1cscc1Cc1cccs1	9%[11.4 µM]
CC(=O)Nc1ccc(S(=O)(=O)NCCc2csc(C)n2)cc1	-1%
C=CCSc1nnc2c(n1)[nH]c1c(C)cccc12	-2%
CC(C)CN1CCC2(CC1)CCN(C(=O)c1ccco1)CC2	6%
COc1ccc(OCC(=O)Nc2cccc3cccnc23)cc1	-10%
O=C(Cn1nnc(-c2ccccc2F)n1)Nc1ccc(C(=O)N2CCOCC2)cc1	5%
COc1ccc(C(c2nnnn2C2CCCCC2)N2CCN(c3ccccc3F)CC2)cc1 (centres undefined)	14%

Looked up one by one from the entries so far (5):
SMILES	HSD17B inh
CCS(=O)(=O)Nc1ccc(C(=O)CC2(O)C(=O)Nc3ccc(Br)cc32)cc1 (centres undefined)	?
O=C(Cn1nnc(-c2ccccc2F)n1)Nc1ccc(C(=O)N2CCOCC2)cc1	5%
CC(C)CN1CCC2(CC1)CCN(C(=O)c1ccco1)CC2	6%
CN(CC(=O)Nc1nccs1)S(=O)(=O)c1ccc(F)cc1	5%
O=C(O)c1cscc1Cc1cccs1	9%[11.4 µM]

(continued)
SMILES	HSD17B inh
CCOc1ccc(NC(=O)CS(=O)CC(=O)NC2CCCc3ccccc32)cc1 (centres undefined)	26%
CC(=O)Nc1ccc(S(=O)(=O)Nc2nc3ccccc3nc2Sc2nncn2C)cc1	?
COc1ccccc1NC(=O)CN1CCN(Cc2ccccc2)CC1	-11%
CN1CCN(CCNC(=O)Nc2ccccc2C(F)(F)F)CC1	15%
CCCC[C@@H]1C[C@H]1C(NC(=O)c1cccs1)c1ccc(C(F)(F)F)cc1 (some centres undefined)	5%
Cc1cc(C)c2c(N)c(S(=O)(=O)Cc3ccccc3)sc2n1	?
O=C(O)C(O)[C@@](O)(Cc1ccc(O)cc1)C(=O)O (some centres undefined)	0%
CCSC(C)CC1C/C(=N/O)c2c(C)noc2C1 (centres undefined)	8%
CCCN(CCC)CCCNC(=O)CS(=O)Cc1nc(-c2ccc(OC)c(OC)c2)oc1C (centres undefined)	25µM*
CCOC(=O)CN1C(=O)C2(OCCCO2)c2ccccc21	21%
CCOc1ncccc1C(=O)OCC(=O)c1ccc[nH]1	0%
O=C(c1ccncc1)N1CCC2(CC1)CN(c1cccc(-c3ccccc3)c1)C2	25µM*
O=C(NC1=NCCS1)C1CC2CCC1C2 (centres undefined)	1%
CSC1=NCCN1C(=O)Cc1ccc(F)cc1	4%
CC(=O)N1c2c(cc(Br)cc2S(=O)(=O)N2CCOCC2)CC1C (centres undefined)	2%
CCC(C)N(C(=O)COC(=O)c1[nH]c(C)c(C(C)=O)c1C)C1CCS(=O)(=O)C1 (centres undefined)	10%
Nc1c(C(=O)NC2CCCC2)c2nc3ccccc3nc2n1N	?
COc1cccc(C(=O)NCC(=O)N2CCC(C)CC2)c1	-1%
C/C(=N\O)c1ccc2c3c([nH]c2c1)CCCC3	25µM*
Cc1c(Nc2nc3ccccc3nc2NS(=O)(=O)c2ccccc2)c(=O)n(-c2ccccc2)n1C	-1%
COCCn1nnnc1C(c1cc2cc(C)ccc2[nH]c1=O)N1CCCCCC1 (centres undefined)	?
COc1ccc(N2C(=O)C3CCCN3C2c2ccc(Cl)cc2)cc1 (centres undefined)	0%
CC(=O)C1CCC2C3CC=C4CC(O)CC[C@@]4(C)C3CC[C@]12C (some centres undefined)	20%
COc1ccc(-c2nc(CS(=O)CC(=O)NC3CCCc4ccccc43)c(C)o2)cc1OC (centres undefined)	?
C=C(C)Cn1c(SCC(=O)NCc2ccco2)nc2sc3c(c2c1=O)CCC3	4%
Cn1cccc1C(=O)N1CCC2(CC1)CN(C(=O)Nc1ccccc1)C2	-3%
CC[N+](C)(C)c1cccc(O)c1	4%
N[C@@H](Cc1ccccc1)C(=O)O	6%[11.4 µM]
CCOC(=O)C1=C(C)S/C(=C\N(C)C)C1=O	?

An excerpt of these results, in markdown.
| Compound | HSD17B inh |
| --- | --- |
| CC(=O)N1c2c(cc(Br)cc2S(=O)(=O)N2CCOCC2)CC1C (centres undefined) | 2% |
| CCC(C)N(C(=O)COC(=O)c1[nH]c(C)c(C(C)=O)c1C)C1CCS(=O)(=O)C1 (centres undefined) | 10% |

A portion of the library; the hit share may differ from the screen's.
